DT40 TDP1 no CPT – qHTS for Inhibitors of human tyrosyl-DNA phosphodiesterase 1 (TDP1): qHTS in cells in absence of CPT | Potency, µM (series often up to 46.2 µM), inactives show top-dose activity change, negative = growth inhibition, actives largely listed as inhibitors | DT40 Tdp1-/- hTDP1 cells, no CPT, ATP luminescence, 48 h | 420,000 compounds, 15% hits | AID 686978, 2013; also: nearly all actives have a fitted effect of over 55% in size
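Chicken DT40 Tdp1-/- cells complemented with human TDP1, screened without camptothecin (DMSO vehicle only), 400 cells/well. Compounds pin-transferred, cells incubated at 37 °C for at least 48 hr. Growth read as ATP-dependent luminescence (CellTiter-Glo, 30 min at RT).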
N370S GC mod – inhibits or activates N370S mutant glucocerebrosidase; P04062; N370S GC spleen homogenate, 4MU-glucoside fluorescence; Potency, µM (titrated, usually from 59.4 µM), inactives show at the top dose activity change, negative = inhibition, most hits filed as inhibitors; 330,000 compounds, 0.092% hits;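 also: 0% = full enzyme activity and -100% = no enzyme basal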
* hit, by the source's call; & = joins results of further samples; [ ] = remark or other dose. Calls follow the shape of the dose curve; as a rule, active = well fitted curve in the direction sought with a large enough effect; inconclusive = small, poorly fitted or top-dose-only effect, or another doubt; inactive = no such curve, though single readings can be large; an effect the other way counts as inactive or inconclusive. Unless noted, % is scaled to controls: 0 for no effect and ±100 for the full control effect; potency is read from the fitted curve at half-maximal effect. The list is partial, and most or all hits are left out here.

`Cc1ccc(C(=O)N[C@@H](C)CN2C3=NC[C@H](C)N3C[C@H]2Cc2ccc(O)cc2)cc1Br` gave N370S GC mod -29%.
Screening C/C(O)=C(/C=Nc1ccccc1)C(=O)Nc1ccccc1 returned DT40 TDP1 no CPT -12% and N370S GC mod 3%.
C=CCN1C(=O)/C(=C2/C(=O)N(CC(=O)O)c3ccccc32)S/C1=N/c1nccs1 was read as N370S GC mod -4%.
Screening CC(=O)OC[C@H]1O[C@@H](O/N=C(\C)CCN2CCCc3nc(C)c(C)cc32)[C@H](OC(C)=O)[C@@H](OC(C)=O)[C@H]1OC(C)=O returned N370S GC mod 15%[12.8 µM].
`CC/C=C\C/C=C\C/C=C\C/C=C\C=C\C(O)CCCC(=O)O` (configuration not stated) gave N370S GC mod 4%.
Screening CCCCCCN(C(=O)CCCCCN1C(=O)NC(c2ccc(-c3ccccc3)cc2)C(C(=O)OCc2ccccc2)=C1C)C(C)C(=O)NCCCC (configuration not stated) returned N370S GC mod 0%&8%.
For CCC1=C2CC[C@H]3C(=O)N(CC)C(=O)[C@H]3[C@H]2[C@@]2(Cc3ccccc3)C(=NCC3CC3)OC(=O)N2C1=O the results were N370S GC mod -10%.
For CCC/C=C(\CCC)C(NS(=O)(=O)c1ccc(C(F)(F)F)cc1)c1ccc(-c2ccccc2)cc1 (configuration not stated) the results were N370S GC mod 2%.
Screening O=C1CCCC1C(O)c1ccc2ccccc2c1 (configuration not stated) returned N370S GC mod -8%.
Screening O=C(O)c1ccc2c(c1)C(=O)N([C@H](Cc1ccc(O)c(O)c1)C(=O)O)C2=O returned N370S GC mod 0%.

Three entries picked at random from the list so far:
Screening C/C(O)=C(/C=Nc1ccccc1)C(=O)Nc1ccccc1 returned DT40 TDP1 no CPT -12% and N370S GC mod 3%.
`Cc1ccc(C(=O)N[C@@H](C)CN2C3=NC[C@H](C)N3C[C@H]2Cc2ccc(O)cc2)cc1Br` gave N370S GC mod -29%.
Screening O=C(O)c1ccc2c(c1)C(=O)N([C@H](Cc1ccc(O)c(O)c1)C(=O)O)C2=O returned N370S GC mod 0%.

Further compounds.
Screening CCCCn1c(SCc2cc(=O)[nH]c3ccccc23)nc2c1c(=O)n(C)c(=O)n2C returned N370S GC mod -4%.
Screening Cc1cc2nc(NC3=NCN(Cc4ccc5c(c4)OCO5)CN3)nc(C)c2cc1C returned N370S GC mod 7%.
`CC/C(O)=C1\C(=O)CC(c2ccccc2)CC1=NC(C)C` (configuration not stated) gave DT40 TDP1 no CPT -29% and N370S GC mod 4%.
For CCCCC1=CC2=C(c3ccco3)C(=O)C(C)(OC(=O)c3ccc(Cl)nc3)C(=O)C2=CO1 (configuration not stated) the results were N370S GC mod -2%.
O=c1[nH]c(=S)n(C2CCCCC2)c(O)c1C=NCCN1CCOCC1 was read as DT40 TDP1 no CPT 0% and N370S GC mod -5%.
COC(=O)[C@@]1(Cc2ccc(F)cc2)[C@H]2c3cc(C(=O)N4CCCC4)n(CCc4c[nH]c5ccc(OC)cc45)c3C[C@H]2CN1C(=O)c1ccccc1 was read as N370S GC mod -27%&-12%.
c1ccc(C2=Nc3ccccc3SC2c2nc3ccccc3[nH]2)cc1 (configuration not stated) was read as N370S GC mod 4%.
Screening CCCCOc1ccc(C(=O)Nc2ccc(S(=O)(=O)Nc3onc(C)c3C)cc2)cc1 returned N370S GC mod -2%.
`O=c1cc(-c2c(F)c(F)c(F)c(F)c2F)oc2c(F)c(F)c(F)c(F)c12` gave N370S GC mod -7%.
`O=C1c2ccccc2C(Cc2ccnc(F)c2)(Cc2ccnc(F)c2)c2ccccc21` gave N370S GC mod -5%.
For CCOC(=O)/C(N=O)=C(\O)C1CCN(C(=O)OCC)CC1 the results were DT40 TDP1 no CPT 1% and N370S GC mod -4%.
For C=CCn1c(O)c2ccc(C(=O)N=NC(=O)COc3ccc(OC)cc3)cc2c1O the results were DT40 TDP1 no CPT 8% and N370S GC mod -2%.
For CC(Cc1ccccc1)C(=O)NCC1CC1 (configuration not stated) the results were N370S GC mod -8%.
For COC(=O)c1ccc(C(NC(=O)OCc2ccccc2)/C(=C/[C@@H](C)C(=O)Nc2ccc(OC)cc2)c2cccnc2)cc1 (some centres not stated) the results were N370S GC mod -11%.
Screening COC(=O)[C@@H]1CC[C@H](C)[C@@H](c2ccc(C)cc2)N1C(=O)c1ccc(/C=N\OCC[C@@H]2C=C[C@H](OC(C)=O)[C@H](COC(C)=O)O2)cc1 returned N370S GC mod 15%[12.8 µM].
Screening O=C(NC(=S)N1CCN(c2ccccc2)CC1)c1ccccc1 returned N370S GC mod -6%.
For CCC[C@@H]1C[C@@]1(CCC)C(NC(=O)c1cccs1)c1ccc(Cl)cc1 (some centres not stated) the results were N370S GC mod 14%.
Cc1nc(Nc2ccccc2)c2nc(-c3ccccc3)n(CCN3CCOCC3)c2n1 was read as N370S GC mod -14%.
For COc1ccc(C)cc1NC(=O)C(c1ccccc1)N1CCNC(=O)C1 (configuration not stated) the results were N370S GC mod -11%.
For Cc1nc(S/C(=C/c2ccc(-c3ccc(C(=O)O)cc3)o2)C(=O)O)n[nH]1 the results were DT40 TDP1 no CPT 2% and N370S GC mod -21%.

Brought forward from above: 3 compounds; new compounds follow.
Cc1nc(Nc2ccccc2)c2nc(-c3ccccc3)n(CCN3CCOCC3)c2n1 was read as N370S GC mod -14%.
For COc1ccc(C)cc1NC(=O)C(c1ccccc1)N1CCNC(=O)C1 (configuration not stated) the results were N370S GC mod -11%.
For Cc1nc(S/C(=C/c2ccc(-c3ccc(C(=O)O)cc3)o2)C(=O)O)n[nH]1 the results were DT40 TDP1 no CPT 2% and N370S GC mod -21%.
Screening NCCC[C@@H](CC(=O)N[C@@H]1CCNC[C@H]1C(=O)N[C@H](CC(=O)N[C@@H](CCC(=O)O)CC(=O)O)Cc1c[nH]c2ccccc12)NC(=O)C[C@H](Cc1ccccc1)NC(=O)[C@@H]1CCCC[C@H]1N returned N370S GC mod -1%.
Screening CCN1C(=O)/C(=C2\SC(=S)N(CC3CCCO3)C2=O)c2ccccc21 (configuration not stated) returned N370S GC mod -1%.
Screening CC/C(O)=C1\C(=O)CCCC1=NCCc1nc2ccccc2[nH]1 returned N370S GC mod -2%.
Screening O=C(CSc1nnc(-c2ccc(Cl)cc2)o1)N1CCN(c2ccccc2)CC1 returned N370S GC mod 5%.
For CCc1nnc(NC(=O)c2csc3c2CCC(C)C3)s1 (configuration not stated) the results were N370S GC mod -3%.
CCCCN1CC(O)=C(c2nc(-c3ccc(Br)cc3)cs2)C1=N was read as DT40 TDP1 no CPT -14% and N370S GC mod inconclusive.
COC(=O)C1C[C@@H]2C3=C(C(=O)[C@@](C)(NC(=O)c4ccccc4)C3[C@H](C(=O)OC)C1)[C@H](C)n1c(=O)n(-c3ccccc3)c(=O)n12 (some centres not stated) was read as N370S GC mod 5%.
Screening Cc1ccccc1C(=O)Nn1c(C)ccc1C returned N370S GC mod -9%.
`O=C(O)c1ccccc1NS(=O)(=O)c1ccc(NN=Cc2ccc(F)cc2)c([N+](=O)[O-])c1` gave DT40 TDP1 no CPT -3%.
For Cc1cc(C(F)(F)F)n(-c2nc(C(=O)Nc3ccccc3Oc3ccccc3)cs2)n1 the results were N370S GC mod -24%.
For CC(=O)Nc1ccn(C2OC(C(COC(C)=O)NC(=O)C(CCCCNC(=O)OCc3ccccc3)NC(=O)OC(C)(C)C)C(OC(C)=O)C2OC(C)=O)c(=O)n1 (configuration not stated) the results were N370S GC mod -8%.
Screening COc1ccc(N=C2S/C(=C\c3ccc(N4CCOCC4)o3)C(=O)N2CCc2c[nH]c3ccccc23)cc1 returned N370S GC mod -14%.
Screening CO/N=C(\C(=O)N[C@@H]1C(=O)N2C(C(=O)[O-])=C(C[N+]3(C)CCCC3)CS[C@@H]12)c1csc(N)n1 returned N370S GC mod -10%[21.6 µM].
For O=C(c1ccccc1)c1c(O)nc(-c2ccccc2)n(-c2ccccc2)c1=O the results were DT40 TDP1 no CPT -3% and N370S GC mod 14%.
For COC(=O)c1ccc(C(NC(=O)OCc2ccccc2)/C(F)=C/[C@@H](C)C(=O)NCc2cccnc2)cc1 (some centres not stated) the results were N370S GC mod -10%.
`C=C(C(C)=O)C(O)c1ccc(C(F)(F)F)cc1` (configuration not stated) gave N370S GC mod -1%.
Screening Cc1ccc(C(=O)Nc2ccc(C(=O)N/N=C/c3ccncc3)cc2)cc1 returned N370S GC mod -8%.
Screening CCCn1c(-c2ccc(F)cc2)nc2c(NCCN3CCCC3)nc(C)nc21 returned N370S GC mod 4%.
`CCn1nc(C)cc1C(=O)N1CCCC(N2CCN(c3cccc(Cl)c3)CC2)C1` (configuration not stated) gave N370S GC mod 1%.
For Cc1nc(NC(=O)c2ccccc2)sc1-c1csc(Nc2ccc(F)cc2)n1 the results were N370S GC mod -7%.
`O=C1c2ccccc2C(=O)C1(O)O` gave N370S GC mod -5%.
`Cc1cc(NC(=O)COc2cccc3cccnc23)no1` gave N370S GC mod 5%.
`O=C1CC(Cc2ccccc2)C(=O)N1CCCn1ccnc1` (configuration not stated) gave N370S GC mod 5%.
`C#CCCCC(=S)Nc1ccccc1` gave N370S GC mod 2%.
For Cc1ccc(N2CCN(CC(=O)Nc3c(C(=O)C4CC4)oc4ccccc34)CC2)cc1 the results were N370S GC mod 8%.
`COc1cc(CC(NC(C)=O)C(=O)NC2CCN(c3c4c(nc5ncnn35)CCC4)CC2)cc(OC)c1` (configuration not stated) gave N370S GC mod -2%.
`C(=N\Nc1nc(Nc2ccccc2)nc(N2CCCCC2)n1)/c1ccco1` gave N370S GC mod -8%.
For COc1cc(/C=C/C(=O)Nc2ccccc2C(F)(F)F)cc(OC)c1OC the results were N370S GC mod 4%.
For OCCNCCNCc1ccc(-c2ccccc2)cc1 the results were N370S GC mod -22%.
CCCCn1nnc(NC(=O)c2ccc(-c3cccc([N+](=O)[O-])c3)o2)n1 was read as N370S GC mod -5%.
Screening CCC/C=C(\CCC)C(NP(=O)(c1ccccc1)c1ccccc1)c1ccc(C(F)(F)F)cc1 (configuration not stated) returned N370S GC mod inconclusive.
Screening CCc1ccc(NC(=O)CN2C(=O)C(=O)N(Cc3ccccc3)C2=O)cc1 returned N370S GC mod 0%.
`CCCCCCN(C(=O)CCCCCN1C(=O)NC(c2ccc(-c3ccccc3)cc2)C(C(=O)OCc2ccccc2)=C1C)C(C(=O)NCCCC)c1ccccn1` (configuration not stated) gave N370S GC mod -8%&22%.
Screening CCCn1c(C)nc2c(NCCCN(CCO)CCO)nc(C)nc21 returned N370S GC mod -5%.
For CCCCC/C=C\C/C=C\C/C=C\C/C=C\CCCC(=O)OC(CO)CO the results were N370S GC mod 0%&15%&-3%.
For CCc1c2c(nc3cccc(C(C)C)c13)-c1cccc(=O)n1C2 the results were N370S GC mod inconclusive.
Screening COc1cc(OC)c(C2N(C)c3ccccc3N2C)cc1OC returned N370S GC mod 0%.
`CCCCC/C=C\C/C=C\CCCCCCCCCC(N)=O` gave N370S GC mod -3%.
COC(=O)C1=C(C)NC2=C(C(=O)CCC2)C1c1ccsc1 (configuration not stated) was read as N370S GC mod 4%.
CCc1ccc(-c2cc(-c3n[nH]c(=S)n3CC)c3ccccc3n2)cc1 was read as N370S GC mod 6%.

Arranged by number of heavy atoms (low to high): some entries from above
Screening CCCn1c(-c2ccc(F)cc2)nc2c(NCCN3CCCC3)nc(C)nc21 returned N370S GC mod 4%.
Cc1nc(Nc2ccccc2)c2nc(-c3ccccc3)n(CCN3CCOCC3)c2n1 was read as N370S GC mod -14%.
`COc1cc(CC(NC(C)=O)C(=O)NC2CCN(c3c4c(nc5ncnn35)CCC4)CC2)cc(OC)c1` (configuration not stated) gave N370S GC mod -2%.

(further entries)
`C#CCOCCOCCOCCNc1nc(N2CCN(C(=O)[C@H](CCCCN)n3cc(C(N)CO)nn3)CC2)nc(N2CCN(C(=O)[C@H](CCC(=O)O)n3cc(C(N)Cc4ccc(O)cc4)nn3)CC2)n1` (some centres not stated) gave N370S GC mod 1%.
For COC(=O)[C@@]1(Cc2ccccc2)[C@H]2c3cc(C(=O)N(C)C)n(Cc4ccc(O)c(OC)c4)c3C[C@H]2CN1C(=O)c1ccccc1 the results were N370S GC mod -21%.
`BrC(Br)C(Br)Br` gave N370S GC mod 2%.
`COC(=O)NC(c1cccc(C)c1)[C@@]1(C(=O)OC)CCCC1=O` (some centres not stated) gave N370S GC mod -2%[12.8 µM].
COc1ccc(S(=O)(=O)N2CCOCC2)cc1NC(=O)CSc1nnc2ccccn12 was read as N370S GC mod 14%.
Screening CCCCC/C=C\C/C=C\CCCCCCCCCC(=O)NCCCC(=O)O returned N370S GC mod -2%.
Screening Cc1ccccc1NS(=O)(=O)c1ccc2[nH]cc(C(=O)N3CCCCC3)c(=O)c2c1 returned DT40 TDP1 no CPT 16% and N370S GC mod -8%.
Screening COCCNC(=O)[C@H](C)/C=C(\c1cccnc1)C(NC(=O)OCc1ccccc1)c1ccc(C(=O)OC)cc1 (some centres not stated) returned N370S GC mod -10%.

In the list so far, these contain a thiophene ring, fused or not:
For CCC[C@@H]1C[C@@]1(CCC)C(NC(=O)c1cccs1)c1ccc(Cl)cc1 (some centres not stated) the results were N370S GC mod 14%.
For CCc1nnc(NC(=O)c2csc3c2CCC(C)C3)s1 (configuration not stated) the results were N370S GC mod -3%.
COC(=O)C1=C(C)NC2=C(C(=O)CCC2)C1c1ccsc1 (configuration not stated) was read as N370S GC mod 4%.

Screening data as filed in PubChem BioAssay.
